High-throughput results from PubChem BioAssay.
Mtb growth – M. tuberculosis H37Rv growth inhibitors, H37Rv strain (AID 1626); actives 0.95% (n = 220,000); inhibition, % at 10 µM, or IC50 in µM where a hit was titrated; M. tuberculosis H37Rv growth inhibition; higher % means a stronger effect;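 active means confirmed in a dose series; inconclusive means inhibition above 80% but not taken into the dose series; inactive means below 80% or under 30% at every dose of the series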;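 further: bacteria incubated seven days before Alamar blue readout; 0% = bacteria only wells and 100% = bacteria with antibiotic wells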
RecA splice inh – blocks M. tuberculosis RecA intein splicing. P9WHJ3. cell-free RecA intein splicing, fluorescence. inhibition, %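 (about 9 µM by stock and volumes)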. actives 0.75% (n = 290,000). AID 2221; in the data active means inhibition above about 30%; inconclusive means no clear call, values can overlap the other calls;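 further: 0% = vehicle wells and 100% = reference inhibitor control wells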
Target sequence (P9WHJ3 whole entry, looked up, canonical isoform): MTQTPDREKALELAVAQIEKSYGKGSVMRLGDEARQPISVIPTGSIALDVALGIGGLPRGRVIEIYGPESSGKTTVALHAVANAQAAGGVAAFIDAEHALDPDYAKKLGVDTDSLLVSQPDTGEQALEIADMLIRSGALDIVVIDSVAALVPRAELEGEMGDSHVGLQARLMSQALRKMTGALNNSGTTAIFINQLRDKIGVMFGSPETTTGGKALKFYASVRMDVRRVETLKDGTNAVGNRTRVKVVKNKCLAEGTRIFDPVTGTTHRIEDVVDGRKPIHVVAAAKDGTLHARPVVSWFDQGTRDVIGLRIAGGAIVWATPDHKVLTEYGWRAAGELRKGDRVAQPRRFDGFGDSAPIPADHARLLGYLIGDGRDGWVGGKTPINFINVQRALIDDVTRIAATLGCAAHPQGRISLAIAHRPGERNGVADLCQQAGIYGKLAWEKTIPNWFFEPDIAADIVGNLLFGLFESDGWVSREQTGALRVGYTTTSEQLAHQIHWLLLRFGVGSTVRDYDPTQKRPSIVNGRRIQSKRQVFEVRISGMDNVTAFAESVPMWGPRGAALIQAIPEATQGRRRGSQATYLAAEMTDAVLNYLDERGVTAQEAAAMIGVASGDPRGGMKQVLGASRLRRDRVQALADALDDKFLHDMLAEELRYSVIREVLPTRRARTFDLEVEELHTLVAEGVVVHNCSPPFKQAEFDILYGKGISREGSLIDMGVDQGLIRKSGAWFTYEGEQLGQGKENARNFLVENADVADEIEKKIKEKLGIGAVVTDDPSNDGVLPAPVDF
YopH PTP inh – YopH (Yersinia) phosphatase inhibition. AID 898. actives 0.16% (n = 140,000). inhibition, %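 (about 10 µM by stock and volumes)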. fluorescence Ex485/Em525;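 active means inhibition of 50% or more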;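 further: controls were vehicle for no effect and minimum signal wells for full effect; inactives centre near -20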
Arbovirus inh – arbovirus infection inhibition | AID 1251 | arbovirus infection cell-based antiviral screen | actives 0.37% (n = 200,000) | inhibition, % at 10 µM;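 active means inhibition from about 30%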;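 further: bluetongue infection of BSR cells; cell survival read as ATP light after 72 h; 0% = infected wells without compound and 100% = uninfected wells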
Mtb betalactam – beta-lactam sensitization of Mtb H37Rv; M. tuberculosis H37Rv growth with meropenem, percent inhibition; hits of this screen are not shown here; inhibition, % at 25 µM; actives 0.27% (n = 330,000); AID 434955;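 active means about 74% or more and at least 40 points above the plate without the antibiotic, then above 30% in a dose series; inconclusive means first-round hits that could not be retested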;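 further: growth measured after seven days incubation then overnight dye step; 0% = bacteria only wells and 100% = bacteria with antibiotic; twin plates without the antibiotic show which effects depend on it; some results filed as inactive read as strong as hits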
An asterisk follows results filed as active; ? = inconclusive; . = no result given. Some of the compounds tested. The share of hits here may be higher or lower than overall.

Under each structure – Mtb growth, RecA splice inh, YopH PTP inh, Arbovirus inh, Mtb betalactam
O=C(/C=C/c1ccc(O)c(O)c1)OC(Cc1ccc(O)c(O)c1)C(=O)O (centres undefined)
 : ., -7.6, ., ., -1
CN(C(=O)COC(=O)c1cc([N+](=O)[O-])ccc1N1CCCC1)C1CCS(=O)(=O)C1 (centres undefined)
 : -5%, 5.3, ., 6, 2
CCOCCN1CCN(c2c3c(nc4cc(-c5ccc(F)cc5)nn24)CCC3)CC1
 : 4%, -0.7, -8, -8, .
COc1ccc(N(C(C)C(=O)Nc2cccnc2)S(C)(=O)=O)cc1 (centres undefined)
 : -6%, -0.7, ., 2, 0
CCOC(=O)C1CCCN(C(=O)c2ccc3c(=O)n(Cc4ccccc4OC)c(=S)[nH]c3c2)C1 (centres undefined)
 : ., -4.6, ., ., 6
COCCNC(=O)c1cn(C(C)c2ccccc2F)nn1 (centres undefined)
 : -4%, -0.2, ., ., -5
CCCCNC(=S)Nc1ccc(SC(F)F)cc1
 : 7%, 4.1, ., -35, 13
CC(C)CNC(=O)CCCc1c[nH]c2ccccc12
 : -5%, 2.9, 4, 8, 0
O=C(N/N=C/c1cc2c(cc1[N+](=O)[O-])OCO2)c1ccc2c(c1)OCO2
 : ., -4.2, ., ., 2
Cc1ccn2c(=O)c(NC(=O)c3ccc(Br)o3)c(C)nc2c1
 : ., -1.2, ., ., 0
Cc1ccc(SCc2cc(=O)[nH]c(Nc3nc(C)c4ccc(C)cc4n3)n2)cc1
 : 28%, 8.3, -8, -5, 13
O=C1CC(=O)Nc2cc(S(=O)(=O)Nc3ccc(F)cc3Cl)ccc2N1
 : ., 0.0, ., ., ?
O=C1C(Nc2ccccc2)=C(NS(=O)(=O)c2ccccc2)C(=O)c2ccccc21
 : 9%, 3.3, -27, -17, 4
Cc1cc(C)cc(N2C(=O)CC(Sc3ncn[nH]3)C2=O)c1 (centres undefined)
 : -5%, 4.6, ., 12, -9
CCOc1ccccc1N1CC(C(=O)NCCOc2ccccc2OC)CC1=O (centres undefined)
 : ., -0.2, ., ., -5
CCOc1ccc(NC(=O)NCC2CCN(c3ccc(OC)cc3)C2)cc1 (centres undefined)
 : 3%, -1.9, -10, -2, -4
CCOc1ccc(Br)cc1CNCc1cccnc1
 : ., -0.8, ., ., 5
O=C(COc1ccc2c(c1)OCO2)Nc1ccccc1F
 : 10%, 1.0, ., -7, 7
Cc1ccc(S(=O)(=O)N2CCCCC2)cc1NC(=O)CSc1ccc2c(c1)OCCO2
 : -20%, 3.2, -24, 6, 4
C/C(N)=C(/C#N)C(=O)COC(=O)c1ccccc1Cc1ccccc1
 : -2%, 1.3, ., 0, 12
Cc1c(C)n(C)c2ccc(C(=O)NCCCN3CCOCC3)cc12
 : ., -0.3, ., ., 0
CCOC(=O)N1CCN(C(=S)NC(=O)c2ccc(F)c(F)c2)CC1
 : 11%, -1.8, ., -6, 78
CC(C)C(NC(=O)Cc1ccccc1[N+](=O)[O-])C(C)C
 : -5%, -5.0, -8, 5, -5
COC(=O)Sc1nnc(-c2ccc(Br)cc2)o1
 : -10%, 16, -35, 1, ?
CN(C)C(CNC(=O)CCCOc1ccccc1)c1ccco1 (centres undefined)
 : -5%, -1.1, -66, -1, 12
CCCCn1c(-c2ccco2)nc2oc3ccccc3c(=O)c2c1=O
 : 16%, -0.6, ., ., 0
COc1ccc(C(=O)N/C(=C/c2ccco2)C(=O)N2CCCCCC2)cc1
 : ., -2.2, ., ., 5
COc1ccc(CCNc2nc(-c3ccc(NC(C)=O)cc3)cs2)cc1OC
 : 5%, 2.7, ., -1, 1
CCOC(=O)Cc1[nH]nc2c1C(c1ccsc1)C(C#N)=C(N)O2 (centres undefined)
 : 0%, 57*, ., -8, 4
COc1cc(/C=C2/C(=N)N3C(=NC2=O)SN=C3S(C)(=O)=O)ccc1OS(=O)(=O)c1ccccc1
 : ., 6.8, ., ., 1
COC(=O)c1ccc2c(=O)n(CCN3CCOCC3)c(=S)[nH]c2c1
 : -1%, 1.5, -21, 12, 7
COc1ccc(-c2ccc(SCC(=O)N3CCCC3)nn2)cc1OC
 : -3%, -9.0, -20, 6, -2
COc1ccc(Br)cc1S(=O)(=O)Nc1ncn[nH]1
 : ., -2.9, ., ., -8
O=C1CC(c2ccc3c(c2)OCO3)CN1 (centres undefined)
 : 0%, -1.2, -45, 1, -6
COC(=O)/C=C1/S/C(=N/NC(=O)c2ccccc2)NC1=O
 : 6%, 3.2, -17, 5, -4
COc1ccccc1OCC(=O)N/N=C/C=C/c1ccc([N+](=O)[O-])o1
 : ?, -8.8, -26, -36, 100
CC(Oc1ccccc1C(N)=O)C(=O)Nc1ccc(S(=O)(=O)N2CCCC2)cc1 (centres undefined)
 : ., -0.2, ., ., 1
CCc1cc2c(=O)[nH]c(Cc3ccc(OC)cc3)nc2s1
 : 10%, -0.2, 9, 10, 5
CC(C)(C)OC(=O)NCCCCCc1nnc(SCc2ccccc2F)o1
 : 62%, 1.7, ., ., 71
CCc1ccc(NC(=O)Cn2cnc3sc(C)c(S(=O)(=O)N4CCOCC4)c3c2=O)cc1
 : ., 1.3, ., ., 4
COc1cc(/C=N/NC(=O)c2ccc(O)cc2)ccc1OCC(=O)N1CC(C)OC(C)C1 (centres undefined)
 : -9%, -0.9, ., ., -8
COC(=O)c1cc(C)sc1NC(=O)CN1CCN(C(=O)C2CCCO2)CC1 (centres undefined)
 : ., -0.2, ., ., 0
Cc1ccc2cc(C)c3nnc(SCC(=O)N4CCN(C(=O)c5ccco5)CC4)n3c2c1
 : -8%, -0.6, -5, 3, 0
c1ccc2sc(SCc3ccc(-c4nnco4)cc3)nc2c1
 : -5%, -0.4, -5, -6, 96
CN(c1ccccc1)S(=O)(=O)c1cccc(C(=O)OCC(=O)NCCCN2CCCC2=O)c1
 : 3%, -1.6, ., 4, -5
O=C(CCC(=O)N(CC(=O)NC1CCCC1)Cc1ccc2c(c1)OCO2)Nc1nccs1
 : 0%, 4.1, ., 0, -5
CCC(C)NC(=O)c1ccc(COc2ccccc2Cl)cc1 (centres undefined)
 : 0%, 3.1, -13, -7, 10
CN1CCN(C(=O)C2=C[C@H](c3csc4ccccc34)C[C@H](OCc3ccc(CO)cc3)O2)CC1
 : 0%, 1.2, ., -7, -4
CC(=O)Nc1ccc(Nc2nc(-c3c(C)nc4ccccn34)cs2)cc1
 : ., -0.8, ., ., -2
O=C(COc1ccc(Br)cc1F)NC1CCN(Cc2ccccc2)CC1
 : ., -3.2, -11, 14, -8
O=C(N/N=C/c1cc([N+](=O)[O-])ccc1O)c1cccc2ccccc12
 : ., -4.2, ., ., 2
O=C(CCN1c2ccccc2Sc2ccccc21)OCC(=O)N1CCN(C(=O)c2ccco2)CC1
 : 4%, 2.3, -24, 5, 1
O=C1NC2(CCCCC2)Cc2ccccc21
 : -1%, -0.2, -44, 1, 6
CC(CC(=O)Nc1nc2ccccc2[nH]1)n1ccnc1 (centres undefined)
 : 3%, -1.5, ., 2, -6
Cc1ccc(S(=O)(=O)NCCC(=O)N2CCN(S(=O)(=O)c3ccccc3)CC2)cc1C
 : ., -0.9, ., ., 4
COc1ccc(C(=O)NCCC2=CCCCC2)cc1S(=O)(=O)N1CCOCC1
 : ., 0.7, ., ., -1
COc1cccc(C(=O)Nc2ccc(NC(=O)c3cc4ccccc4o3)c(OC)c2)c1
 : ., -3.9, ., ., 8
COc1cc(Cl)ccc1OCc1cc(C(=O)NC(C)Cc2cccnc2)no1 (centres undefined)
 : ., 0.9, ., ., -13
C/C(CC(=O)NCc1ccc(Cl)cc1)=N\NC(=O)Cc1ccccc1
 : -19%, 0.2, -25, -2, 3
O=C(Nc1ccc2c(c1)OCO2)C(c1ccc(Cl)cc1)N1CCC2(CC1)OCCO2 (centres undefined)
 : 7%, 4.6, -7, 0, 4

Going on with the list.
Under each structure – Mtb growth, RecA splice inh, YopH PTP inh, Arbovirus inh, Mtb betalactam
Cn1nc(C(F)(F)F)c(/C=N/OC(=O)c2ccccc2)c1SCc1ccccc1Cl
 : -1%, 1.1, -10, -17, -10
Cc1ccc(C(c2c(C)[nH][nH]c2=O)c2c(C)[nH][nH]c2=O)cc1
 : ., 98*, ., ., 7
CCn1c2c(c(C)cc1=O)C(=O)CC(C)(C)C2
 : -1%, -1.3, -1, 5, 3
COc1cc(CNn2cnnc2)ccc1OCC(=O)NC1CCCCC1
 : -9%, 1.5, -6, 2, 1
Cn1c(SCC(=O)N(Cc2ccccc2)C(C)(C)C)nc2ccccc21
 : 1%, -1.5, -17, -9, -7
O=C(Nc1ccc(C(=O)O)cc1)/C(=C/c1cccc(Br)c1)NC(=O)c1ccco1
 : -2%, 0.1, ., 16, -2
COc1ccc(N2CCN(C(=O)CSc3ccccc3N)CC2)cc1
 : -10%, -4.3, -33, -2, -1
CC1=CC(C)(C)NC(=O)N1c1ccc(C)cc1
 : 9%, 0.8, ., 17, -7
COC(=O)c1ccccc1NC(=O)CCS(=O)(=O)c1ccc(Br)s1
 : -1%, 3.3, -36, -2, 1
COc1ccc(-c2cc(C(=O)Nc3ccc(O)cc3)c3ccccc3n2)cc1OC
 : 14%, 0.8, ., ., -2
Cc1ccc(N2C(=O)[C@@H]3C(c4ccc(F)cc4)=NO[C@@H]3C2=O)cc1
 : -9%, -5.2, -32, -1, 6
CCCN1Cc2cccc(C(=O)NCCCOC(C)C)c2C1=O
 : 0%, 1.0, -13, -2, -8
COc1cc(-c2nc3ccccc3nc2-c2ccc(O)c(OC)c2)ccc1O
 : ., 1.2, ., ., 3
Cc1ccc(C(=O)CSc2ncnc3sc4c(c23)CCC(C)C4)cc1 (centres undefined)
 : -21%, 6.1, -25, -2, .
Nc1ccccc1SCC(=O)Nc1ccc2c(c1)OCO2
 : ., -0.3, ., ., -4

Shown bar-delimited: part of the list above.
compound | Mtb growth | RecA splice inh | YopH PTP inh | Arbovirus inh | Mtb betalactam
CC(C)CNC(=O)CCCc1c[nH]c2ccccc12 | -5% | 2.9 | 4 | 8 | 0
O=C(N/N=C/c1cc2c(cc1[N+](=O)[O-])OCO2)c1ccc2c(c1)OCO2 | . | -4.2 | . | . | 2
Cc1ccn2c(=O)c(NC(=O)c3ccc(Br)o3)c(C)nc2c1 | . | -1.2 | . | . | 0
Cc1ccc(SCc2cc(=O)[nH]c(Nc3nc(C)c4ccc(C)cc4n3)n2)cc1 | 28% | 8.3 | -8 | -5 | 13

More entries follow:
Under each structure – Mtb growth, RecA splice inh, YopH PTP inh, Arbovirus inh, Mtb betalactam
O=C(CN1CCN(Cc2ccc(Cl)cc2)C1=O)NCCCN1CCN(c2ccc(F)cc2)CC1
 : 4%, -1.2, -18, 8, -15
Cc1nnc(NCc2ccco2)s1
 : 2%, 2.3, 7, 6, 2
CCOc1cc(CNCCN(C)C)c(Cl)cc1OCC(=O)NCCc1ccccc1
 : 1%, 0.6, 13, 4, .
CCOCCc1nnc(NC(=O)C(C)Oc2ccccc2)s1 (centres undefined)
 : 0%, -0.6, ., -2, -6
O=C(c1cccnc1)N1CCN(Cc2ccc3ccccc3c2)CC1
 : ., 0.2, ., ., 4
Cc1ccc(-n2c(=O)[nH]cc(C(=O)Nc3ccc4c(c3)OCCO4)c2=O)cc1C
 : -4%, 3.8, 39, 21, 3
O=C(Nc1cc(Cl)ccc1Cl)C1CCCO1 (centres undefined)
 : ., -1.4, ., ., -2
Fc1ccc(N/N=C2/CC(c3ccccc3)Oc3ccccc32)c(F)c1 (centres undefined)
 : 70%, -0.4, -34, -34, 91
Cc1cccc(NC(=O)NNS(=O)(=O)c2ccc(F)cc2)c1
 : 7%, 2.0, -21, -4, 2
CC1COC(=O)C(NNc2ccc(Cl)c(Cl)c2)=N1 (centres undefined)
 : ?, -4.4, ., -24, 6
O=C(CN(C(=O)CCC(=O)Nc1nccs1)c1ccccc1F)NCC1CCCO1 (centres undefined)
 : 4%, -1.3, -4, 1, -2
CC1CCN(c2ccc(C(=O)NCc3cccs3)cn2)CC1
 : 2%, 0.7, -30, -37, 11
CC(C)c1cccc(C(C)C)c1NC(=O)COC(=O)[C@H](C)NC(N)=O
 : 1%, 2.6, ., 1, -4
O=C(Nc1ccnn1C1CCN(Cc2ccc(Cl)cc2)CC1)C1CCCC1
 : ., 0.1, ., ., -11
Cc1ccc(P(=Nc2ccccc2)(N2CCOCC2)N2CCOCC2)o1
 : -1%, 1.1, -50, 8, 4
CC(Cc1ccccc1)C(=O)Nc1ccc(Br)cc1 (centres undefined)
 : ., 4.0, ., ., 9
COC(=O)c1oc2ccc(Br)cc2c1-n1cccc1
 : -1%, -1.3, -10, -8, 0
Cc1ccc(OCc2ccc(C(=O)Nc3ccc(S(N)(=O)=O)cc3)o2)cc1
 : -1%, -1.2, ., 13, 6
COc1ccccc1CNC(=O)COC(=O)c1ccccc1-c1ccccc1
 : ., 12, ., ., 1
